UUG fidelity – modulators of yeast start codon fidelity, primary screen, whole organism, S. cerevisiae, single point, plate reader; activity score, % at 18.7 µM; hit rate 0.13% among 350,000; S. cerevisiae UUG-firefly luciferase reporter, luminescence/redox ratio;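 active = replicate mean at a twofold rise or more, about +100% in these data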;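 note: firefly luciferase made from a UUG start codon reports start codon fidelity; reporter light over untreated wells divided by growth signal over untreated wells; some hits fall short of that in this replicate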
eIF4H FP inh – human eIF4H binding inhibitors, primary screen, translation initiation inhibitor project, biochemical, uHTS, fluorescence polarization; eIF4H fluorescence polarization binding assay; inhibition, % at 35 µM; hit rate 0.94% among 290,000; AID 2012, 2009;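 active = 50% or more with normal probe brightness, or confirmed in later tests; inconclusive = above 50% with abnormal brightness, or retests that disagree; inactive = below 50% or failed in later tests; about a fifth of its hits are not listed in these tables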;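 note: calls also rest on retests at 20 µM and on dose response follow-up; 0% = protein and probe with vehicle and 100% = probe without protein; strong numbers were not always called active; many hits fall short of the cut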
PABP FP inh – PABP poly(A) RNA binding inhibitors, primary screen, biochemical, fluorescence polarization, uHTS | hit rate 1% among 290,000 | AID 2014, 2009 | inhibition, % at 35 µM | Polyadenylate-binding protein 1 (Homo sapiens), P11940;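 active = 50% or more with normal probe brightness, or confirmed in later tests; inconclusive = above 50% with abnormal brightness, or retests that disagree; inactive = below 50% or failed in later tests; about a fifth of its hits are not listed in these tables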;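 note: calls also rest on retests at 20 µM and on dose response follow-up; controls were probe without protein and protein plus probe with vehicle; some compounds called inactive have numbers as strong as hits; many hits fall short of the cut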
Rce1 inhib – yeast Rce1p protease inhibitors, primary screen, biochemical, fluorescence, cell-free homogeneous | CAAX prenyl protease 2 (Saccharomyces cerevisiae (strain ATCC 204508 / S288c)), Q03530 | yeast membranes, quenched prenylated peptide cleavage fluorescence | calls only | hit rate 0.27% among 290,000;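 active = fall in fluorescence gain of 50% or more versus controls, with final raw signal at or below 3038400; inconclusive = same 50% fall but final raw signal above 3038400; inactive = fall in fluorescence gain under 50%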;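 note: plate controls were neutral control wells for no effect and wells lacking membranes for full effect; tested at 10 µM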
Target sequence (Q03530 whole entry, looked up): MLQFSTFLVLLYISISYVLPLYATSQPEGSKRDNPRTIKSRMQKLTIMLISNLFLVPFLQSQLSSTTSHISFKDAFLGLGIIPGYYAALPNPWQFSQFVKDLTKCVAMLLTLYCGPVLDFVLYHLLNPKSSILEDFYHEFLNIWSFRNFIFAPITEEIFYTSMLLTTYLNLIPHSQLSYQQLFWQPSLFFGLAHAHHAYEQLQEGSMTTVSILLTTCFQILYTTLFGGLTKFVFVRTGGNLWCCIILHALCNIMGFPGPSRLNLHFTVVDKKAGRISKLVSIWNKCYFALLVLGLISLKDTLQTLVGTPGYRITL
Env fusion inh – inhibitors of HIV-1 Env-driven cell-cell fusion, primary screen, HeLa-JRFL effector, CEM21 target cells, luciferase; hit rate 1.1% among 360,000; inhibition, % at 12.3 µM;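 active = mean replicate inhibition score of at least 50 and every replicate individually at or above 50; inconclusive = only one of the two criteria met; inactive = mean below 50 and not all replicates reaching 50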;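 note: 0% = plate neutral controls and 100% = maraviroc near 300 nM; one replicate is shown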
MT1-MMP act inh – blockers of MT1-MMP proenzyme processing, primary screen, HT1080 RFP-PRO-GFP cells, GFP/RFP fluorescence; Matrix metalloproteinase-14 (Homo sapiens), P50281; GFP/RFP ratio fluorescence, overnight; percent of plate control window, DMSO zero; GFP/RFP ratio change, % at 20 µM; hit rate 0.061% among 360,000; AID 651647, 2012;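 active = GFP/RFP ratio change of at least 30% with cell ATP level not reduced by more than half and red fluorescence within 50% of control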; note: strong numbers were not always called active
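Read-out: GFP/RFP fluorescence ratio; Test system: RFP-PRO-GFP reporter HT1080 cells; Compound dosing: single-point 20 µM compound, 1% DMSO; Times: overnight compound exposure at 37 °C.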
CSC inhib – cancer stem cell viability inhibitors, primary screen, luminescence | AID 2717, 2010 | cancer stem cell-like cells viability | inhibition, % at 7.5 µM | hit rate 1.1% among 300,000;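 active = mean at 75% or more and at least half the replicates too; inconclusive = mean and replicates disagree; tested in HMLE shEcad cells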;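 note: 0% = median of negative and 100% = median of positive control wells; the first replicate is given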
MT1-MMP act inh RFP – second read-out of MT1-MMP act inh, no call of its own (marks repeat the call); RFP signal change, %; measured here: RFP expression control read;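 0 = vehicle wells; hits needed this value within 50% of zero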
* hit, by the source's call; i = inactive; ? = inconclusive; . = not tested or not shown.

SMILES	UUG fidelity	eIF4H FP inh	PABP FP inh	Rce1 inhib	Env fusion inh	MT1-MMP act inh	MT1-MMP act inh RFP	CSC inhib
C=CCN(CC=C)S(=O)(=O)c1ccc(C(=O)Nc2nnc(CSC)o2)cc1	.	-1	2	i	4	0	-2	24
COc1cccc(C(=O)CSc2nnnn2C)c1	-10	-7	2	.	-182	7	1	3
CN(C1CCCCC1)S(=O)(=O)c1ccc2[nH]c(=O)oc2c1	.	-2	1	i	16	4	-1	-1
O=C(CCCn1c(SCC(=O)c2ccc(F)cc2)nc2ccccc2c1=O)NCc1ccccc1	-6	-7	-1	i	-97	5	-3	0
CCN(CC)S(=O)(=O)c1ccc(C)c(NC(=S)Nc2cccc(S(=O)(=O)N3CCCCCC3)c2)c1	-16	-5	-2	i	-5	1	0	-1
Cc1ccc(C)c(/C=C(\C(=O)O)c2ccc(S(=O)(=O)N3CCCCC3)s2)c1	.	32	-3	i	2	-4	1	-1
COc1ccc(F)cc1CN1CCN(C(=O)CCC(=O)Nc2nnc(C3CCCCC3)s2)CC1	-3	.	.	i	10	6	-1	14
COc1ccc2[nH]c(C)c(CCN3C(=O)C4C5C=CC(C5)C4C3=O)c2c1 (configuration not stated)	-11	-2	-2	i	0	1	1	-8
COc1ccc(O)c(/C=N/NC(=O)c2ccc(OCc3cccc(Br)c3)cc2)c1	.	0	-10	i	?	9	-3	91*
Cc1ccc2c(c1)-c1c(cnn1CC(=O)Nc1ccccc1N1CCN(C)CC1)CO2	-20	0	-10	i	.	-3	-5	-8
CCOc1cc(N2CCOCC2)c(OCC)cc1NC(=O)COC(=O)CCOc1cc(C)ccc1C	-12	.	.	i	23	0	-2	6
C/C=C/c1ccc(OC(C)=O)c(OC)c1	-15	2	-2	i	16	-2	3	-6
COC(=O)c1cccc(COC(=O)CNC(=O)c2ccco2)c1	-17	-2	8	i	-28	2	0	-17
CCOC(=O)c1c(NC(=O)C2CCCCC2)sc2c1CCN(CC)C2	-10	3	-7	i	-9	-4	0	.
Cc1c(NC(=O)C2CCCN2S(=O)(=O)c2ccc(Cl)cc2)c(=O)n(-c2ccccc2)n1C (configuration not stated)	-8	-4	3	i	.	-5	0	-10
O=Cc1cc(N=Nc2ccccc2Cl)ccc1O	.	0	-2	i	-107	10	-1	-4
CCN(CC)C(=O)c1sc2nc(-c3ccccc3)ccc2c1N	.	0	-2	i	-135	-1	-1	-4
O=C(Nc1ccc2oc(Cc3ccc(Cl)cc3)nc2c1)c1cccnc1	-10	7	-1	i	.	-6	-9	-6
Cc1cc(C(=O)Nc2sc(C)c(-c3ccc(F)cc3)c2C(N)=O)no1	-10	12	28	i	.	-3	1	-3
CCC(C)NS(=O)(=O)c1ccc(NC(=O)c2cccs2)cc1 (configuration not stated)	.	-5	1	i	16	1	-2	-17
Nc1cccc2c1nnn2C1OC(CO)C(O)C(O)C1O (configuration not stated)	-12	2	18	i	25	1	7	-7
Cc1c(C(=O)N/N=C/c2cccs2)nc2ccccn12	.	0	12	i	6	-3	-2	0
CNC(=O)Nc1cccc(-c2ccnc(C)n2)c1	.	2	4	i	4	4	5	-8
CN(C)/C=N/c1c(C(=O)NCc2ccccc2)nnn1Cc1ccccc1	-11	2	-9	i	-9	3	2	-3
CC(C)(C)c1cc(CCC(=O)NCc2ccccn2)cc(C(C)(C)C)c1O	-14	12	-12	i	.	-1	1	-12

Overlap with the part before: 2 compounds; new compounds follow.
SMILES	UUG fidelity	eIF4H FP inh	PABP FP inh	Rce1 inhib	Env fusion inh	MT1-MMP act inh	MT1-MMP act inh RFP	CSC inhib
CN(C)/C=N/c1c(C(=O)NCc2ccccc2)nnn1Cc1ccccc1	-11	2	-9	i	-9	3	2	-3
CC(C)(C)c1cc(CCC(=O)NCc2ccccn2)cc(C(C)(C)C)c1O	-14	12	-12	i	.	-1	1	-12
CCc1c(C(=O)NC2CCCCC2)[nH]c(C)c1C(C)=O	-3	-4	7	i	-75	1	3	-10
CSc1nc(N)n2nc(-c3ccccc3)cc2n1	5	-4	-6	i	-96	0	-1	-2
CC(=O)Nc1ccc(NC(=O)c2cc(-c3ccc(C)cc3O)n[nH]2)cc1	-8	26	4	i	-6	2	2	-2
COc1cccc(C(=O)NCCN2CCN(c3ccc(Cl)cc3)CC2)c1	-21	.	.	.	8	2	-4	-4
Cc1ccc(SCC(=O)OCC(=O)NC2CCCCCCC2)cc1	0	.	.	i	-19	0	5	-15
Cc1ccc(NC(=O)Cn2cc(C(F)(F)F)cc(Cl)c2=O)cc1Cl	.	7	-1	i	43	4	3	2
COc1cnc(-c2ccccc2)nc1Oc1cccc(C)c1	-11	-7	8	i	.	0	0	-7
CCCC/C(=N\NC(=O)c1ccc(Br)o1)c1ccccc1	-10	2	13	i	-10	4	4	-2
CN(C(=O)COC(=O)c1ccc(S(=O)(=O)N2CCCCCC2)cc1)c1ccccc1	-7	.	.	.	23	2	-1	.
O=C(O)CC1(CC(=O)Nc2ccccc2N2CCOCC2)CCCC1	-1	1	-7	i	5	7	1	-4
CC(C)(C)C(=O)N1CCN(c2nc3ccccc3s2)CC1	-14	-7	-3	i	-35	5	-4	-9
O=C(Nc1ccccc1F)NC1CCCCCCC1	3	2	0	i	-27	-5	-2	1
CCN(CC(=O)Nc1c(F)cccc1F)C(=O)c1ccc(S(=O)(=O)NCc2ccco2)cc1	.	.	.	i	-240	7	0	7
COC(=O)c1ccc(C(=O)Nc2ccc3c(c2)C(=O)NC3=O)cc1	-13	-4	-29	i	-12	-1	-3	3
CC(O)C(NS(=O)(=O)c1ccc(Cl)cc1)C(=O)OCC(=O)c1c[nH]c2ccccc12 (configuration not stated)	-23	-2	-3	i	13	4	-26	-4
COc1cc(C(=O)N(C)c2nnc(-c3cccnc3)s2)cc(OC)c1OC	.	-4	5	i	.	.	.	.
O=C(O)CCN1c2ccccc2Sc2ccccc21	-14	-13	6	i	-1	-8	-2	-6
Cc1cc(NCCCO)n2c(nc3ccccc32)c1C#N	-16	5	-4	i	2	4	-8	3
CCCCN(C)S(=O)(=O)c1ccc(C(=O)Nc2nnc(CSC)o2)cc1	-37	-5	-12	i	.	-6	-9	-13
CN(C)S(=O)(=O)c1ccc(Cl)c(NC(=O)COC(=O)C2CCCO2)c1 (configuration not stated)	.	0	12	i	-6	7	2	-8
CCSc1nnc(-c2ccc(S(=O)(=O)N3CCOCC3)cc2)n1C	.	-2	12	i	-3	0	1	6
C/C=C/c1ccc(OCCOc2cccc3cccnc23)c(OC)c1	.	6	3	i	5	3	4	2
Cc1ccc(C(=O)Nc2cccc(NC(=O)CN3CCCCC3)c2)cc1	-14	-6	3	i	-24	-3	3	-3
O=C(Nc1ccc(F)c(F)c1)c1cccnc1	15	1	-10	i	.	3	5	9
CC(C)Cn1cc(C(=O)N2CCN(c3ccccn3)CC2)c2c3ccccc3n(C)c2c1=O	-5	1	2	i	34	1	-4	1

(list continues)
SMILES	UUG fidelity	eIF4H FP inh	PABP FP inh	Rce1 inhib	Env fusion inh	MT1-MMP act inh	MT1-MMP act inh RFP	CSC inhib
Cc1cc(C)c(C)c(OC(=O)c2sc(Cl)nc2C)c1	.	-8	16	i	.	-1	6	16
CS(=O)(=O)n1nc(-c2ccccc2)nc1NCc1ccco1	-15	0	4	i	.	-3	3	-3
CC(=O)c1cccc(NC(=S)NC(=O)c2ccc(C)cc2Cl)c1	.	-6	-10	i	-12	-1	-1	-2
CCCCOC(=O)c1ccc(NC(=O)CSc2nnnn2C)cc1	2	0	1	i	-7	-4	-3	5
COc1ccc(NC(=O)CCCCCN2C(=O)CCC2=O)cc1Cl	13	-3	10	i	-9	2	0	2
O=C(Nc1cccc(-c2nnc(-c3ccco3)o2)c1)c1ccccc1	15	-4	-4	i	-19	-1	-5	0
COc1ccc(NC(=O)c2ccc(OC(=S)N(C)c3ccc(OC)cc3)cc2)cc1	-12	-8	-14	i	-83	4	4	4
Cc1cc(=O)oc2cc(O)cc(O)c12	23	.	.	.	-7	-3	-4	.
COc1cc2[nH]c(C(=O)N3CCC(Cc4ccccc4)CC3)cc2c(OC)c1OC	24	-14	-6	i	17	4	-1	25
O=C(c1ccc(Cl)c(S(=O)(=O)N2CCCC2)c1)N1CCN(c2ccccn2)CC1	2	12	-16	i	29	18	-8	-15
CC1CC(=O)N(CC(=O)Nc2cccc(Cl)c2)c2ccccc2S1(=O)=O (configuration not stated)	2	-2	12	i	3	-3	4	-7
Cc1ccc(OCC(=O)Nc2ccc3c(c2)nc(CCN2CCCC2)n3C)cc1	-10	.	.	.	8	-1	-4	.
CC1CC(C)CN(S(=O)(=O)c2ccccc2[N+](=O)[O-])C1 (configuration not stated)	-9	7	-6	i	13	1	-2	-4
COc1ccccc1C(=O)Nc1ccccc1N1CCCCC1	2	6	-6	i	31	-3	-6	46
CC(=O)c1ccc(NS(=O)(=O)c2ccc(-c3cnc(C4CC4)o3)cc2)cc1	-2	-7	2	i	.	0	-2	.
COc1cc(-c2nc(-c3ccccc3)c(-c3cccs3)[nH]2)cc(OC)c1OC	-7	-1	19	i	-14	0	-1	78*
CNC(=O)C1=C(C)NC(=S)NC1c1cc2c(cc1OC)CCCC2 (configuration not stated)	.	-2	3	i	-6	2	7	-13
Cc1cccc2nc(CSc3nc4ccccc4o3)cn12	.	-6	4	i	-5	3	4	-13
CN(C)C1C(=O)c2ccccc2C1=O	.	3	0	i	-6	-1	2	-21
COCCn1c(CCc2ccccc2)n[nH]c1=S	.	-7	2	i	-4	1	4	-1
O=C(Nc1ncc([N+](=O)[O-])s1)c1ccccc1Br	0	-6	5	i	-12	-3	-18	-10
NC(=O)c1ccccc1NC(=O)c1ccccc1F	-21	-1	2	i	.	2	0	-17
C=CCNCCCOc1ccc(Cl)cc1C(C)(C)C	.	4	2	i	6	-2	-1	104*
CCN(C(=O)COC(=O)CNC(=O)C12CC3CC(CC(C3)C1)C2)C1CCS(=O)(=O)C1 (configuration not stated)	2	12	9	i	33	1	5	-11
COc1ccc(OC)c(S(=O)(=O)NC2CC(=O)N(c3cccc(F)c3)C2)c1 (configuration not stated)	.	.	.	i	-1	1	3	-5

Following part.
SMILES	UUG fidelity	eIF4H FP inh	PABP FP inh	Rce1 inhib	Env fusion inh	MT1-MMP act inh	MT1-MMP act inh RFP	CSC inhib
CCC(c1nnnn1C1CCCC1)N1CCC(C(N)=O)CC1 (configuration not stated)	.	-8	-9	i	-5	1	3	-9
COc1cc(C(=O)Nc2cccc(-n3cnnn3)c2)cc(Cl)c1OC	-17	8	-6	i	-6	15	-9	-5
CNc1ncc(-c2nnnn2-c2ccccc2)c(-c2ccccc2)n1	.	-7	8	i	3	1	5	-8
NC(=O)C1=C[C@@H](c2coc3ccccc3c2=O)C[C@@H](OCCCCO)O1	-11	-11	2	i	21	4	7	-11
O=C(CNC(=S)N(CCCN1CCOCC1)Cc1cccs1)NCc1ccc(Cl)cc1	-12	.	.	i	3	-1	-1	3
Cc1cccc(CSC2=CS(=O)(=O)c3ccccc3N2)c1	-17	0	-9	i	.	-1	-9	-2
O=C(O)c1c[nH]c(=O)c2ccccc12	.	7	-17	i	14	0	0	-12

Look-ups from the entries so far:
`CNc1ncc(-c2nnnn2-c2ccccc2)c(-c2ccccc2)n1` – MT1-MMP act inh: 1
`NC(=O)C1=C[C@@H](c2coc3ccccc3c2=O)C[C@@H](OCCCCO)O1` – UUG fidelity: -11
`COc1cc(C(=O)Nc2cccc(-n3cnnn3)c2)cc(Cl)c1OC` – Env fusion inh: -6
